Bioassay records (PubChem)
VDR inh = blocks the human vitamin D receptor; Potency, µM, for the others: max response, negative = inhibition, hits mostly inhibitors; VDR-SRC2-3 peptide fluorescence polarization, 2 h; P11473; hit rate 0.93% among 400,000; active = well fitted inhibition curve with a large enough effect; inconclusive = small, poorly fitted or top-dose-only effect, or another doubt; inactive = no such curve, though single readings can be large or run the other way; note: series mostly up to about 120 µM
Target sequence (P11473 whole entry, looked up): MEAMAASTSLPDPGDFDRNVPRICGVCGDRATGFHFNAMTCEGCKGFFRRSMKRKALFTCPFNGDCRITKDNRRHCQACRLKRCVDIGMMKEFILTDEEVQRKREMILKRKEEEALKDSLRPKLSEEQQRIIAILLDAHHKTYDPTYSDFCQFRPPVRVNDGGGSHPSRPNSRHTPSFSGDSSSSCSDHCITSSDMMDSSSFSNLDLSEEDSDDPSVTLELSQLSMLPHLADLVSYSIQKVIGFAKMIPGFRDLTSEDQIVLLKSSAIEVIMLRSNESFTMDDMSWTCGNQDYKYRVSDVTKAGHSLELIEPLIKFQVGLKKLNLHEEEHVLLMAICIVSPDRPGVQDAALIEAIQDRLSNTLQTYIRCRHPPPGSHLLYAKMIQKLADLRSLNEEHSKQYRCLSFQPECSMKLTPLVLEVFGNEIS
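Signal is fluorescence polarization, reporting how far test compounds block the interaction of VDR with the SRC2-3 coregulator peptide after a 2 h room-temperature incubation.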
* = called active by the depositor; ? = inconclusive; & = joins results of further samples. % is set by controls: 0 for no effect and ±100 for the full control effect; potency is the fitted concentration of half-maximal effect. These rows are one share of the data (hit frequency here may not be typical).

VDR inh,structure
-2%,CN(C)S(=O)(=O)N1CCN(c2cc(Cl)ccc2Cl)CC1
20%,COC(=O)c1ccccc1NC(=O)C(Cc1ccccc1)N1Cc2ccccc2C1=O (centres undefined)
?,Cc1cc(Br)c(Cl)cc1NC(=O)CN1C(=O)C2C3CC(c4ccccc4)C(C3)C2C1=O (centres undefined)
-7%,O=C(Nc1ccccc1F)n1ncc2cc(Cl)ccc21
4%,O=C1C2CC=CCC2C(=O)N1c1ccc(NCCc2ccc(Cl)cc2)c([N+](=O)[O-])c1 (centres undefined)
-15%,CCO[C@@H]1OC(C(=O)O)=C[C@H](c2csc3ccccc23)[C@H]1CCCO
3%,CCN(CCNC(=O)C1CCCN(c2ncnc3c2nc2n3CCCCC2)C1)Cc1ccccc1 (centres undefined)
1%,CCOC(=O)C1CCN(C(=O)c2nn(-c3ccc(OC)c(Cl)c3)c(=O)c3c2c2ccccc2n3C)CC1

Next entries
VDR inh,structure
?,Oc1c(C(Nc2cccc(C(F)(F)F)c2)c2ccncc2)ccc2cccnc12 (centres undefined)
12%,Cc1nc2nc(SCC(=O)NCCCN3CCCCC3)nn2c(C)c1Cc1ccccc1
-23%,Cc1cccnc1NCc1ccc(O)c2ncccc12
-5%,CN(C)CCCN1C(=O)CSC1c1ccc([N+](=O)[O-])cc1 (centres undefined)
4%,COc1cc(C(O)c2nc3ccccc3n2C(C)C)cc(OC)c1OC (centres undefined)
7%,COc1ccccc1C(=O)NNC1=C(C(=O)C(F)(F)F)CCC1
-25%,O=C(NNC(=O)c1ccccc1[N+](=O)[O-])c1ccccn1
1%,Cc1cccc(C(=O)NCc2nnc(SCC(=O)N3CCN(c4ccccc4)CC3)n2C)c1

In the list so far, 5 have sulfur.
VDR inh,structure
-2%,CN(C)S(=O)(=O)N1CCN(c2cc(Cl)ccc2Cl)CC1
-15%,CCO[C@@H]1OC(C(=O)O)=C[C@H](c2csc3ccccc23)[C@H]1CCCO
12%,Cc1nc2nc(SCC(=O)NCCCN3CCCCC3)nn2c(C)c1Cc1ccccc1
-5%,CN(C)CCCN1C(=O)CSC1c1ccc([N+](=O)[O-])cc1 (centres undefined)
1%,Cc1cccc(C(=O)NCc2nnc(SCC(=O)N3CCN(c4ccccc4)CC3)n2C)c1

(listing goes on)
VDR inh,structure
11%,CN(CC(=O)Nc1ccccc1C(F)(F)F)C(=O)C1CCN(C(=O)c2ccc(Cl)cc2)CC1
-12%,CCOc1ccccc1NC(=O)NNS(=O)(=O)c1cc(OC)ccc1OC
12%,N#Cc1nc(-c2ccccc2F)oc1NC1CCCCC1
?,Cc1cc(C)cc(NC(=O)C(NS(=O)(=O)c2cccc3nsnc23)c2ccccc2)c1 (centres undefined)
-11%,COC(=O)C1=C(CSc2nc3ccccc3o2)NC(=O)NC1c1cc(C)ccc1C (centres undefined)
15%,CC(C)CCNC(=O)c1c2c(nc3ccccc13)C(=O)N(C1CCCCC1)C2
-29%,CC(=O)OCC1OC(OC(C)=O)C(NC(=O)c2cccnc2)C(OC(C)=O)C1OC(C)=O (centres undefined)
2%,O=C(N[C@@H](CCC/[N+]([O-])=C/c1ccccc1)C(=O)O)OCc1ccccc1

New compounds follow.
VDR inh,structure
5%,COC(=O)c1cccc(NC(=O)Cc2ccc(OC)cc2)c1C
-10%,CCn1ncc(S(=O)(=O)Nc2cccnc2)c1C
-13%,CCCCc1c(O)nc(SCC(=O)N2CCCCC2)n(-c2ccccc2C)c1=O
16%,CCOC(=O)CSc1nnc2n1C(C)(C)Cc1ccccc1-2
-5%,O=C(O)Cc1ccc(NC(=O)c2ccc(NC(=O)c3ccco3)cc2)cc1
?,Nc1c(C(=O)CSc2n[nH]c(-c3ccccc3)n2)c(=O)[nH]c(=O)n1C1CC1
-19%,Cc1ccc(C)c(NC(=O)CSc2nc3c(c(=O)n2C)SC(C)C3)c1 (centres undefined)
0%,O=C(Nc1nnc(C2CC2)s1)C1COc2ccccc2O1 (centres undefined)

The results go on:
VDR inh,structure
-10%,CCCCN1C(=O)c2ccccc2C1C(=O)NC1CCCC1 (centres undefined)
?,CCOc1ccc(-n2c(N)c(C(=O)NCc3ccco3)sc2=S)cc1
-2%,CCOC(=S)SCc1cn2ccccc2n1
-5%,CCOC(=O)C1CCCN(S(=O)(=O)Cc2ccccc2)C1 (centres undefined)
8%,CCOc1ccc(-c2[nH]ncc2-c2ccccc2)c(O)c1
13%,O=C(Nc1cc(C(F)(F)F)ccc1Cl)c1cnn(-c2ccccc2)c1-n1cccc1
14%,O=S(=O)(Cc1ccc(Cl)cc1)NCc1ccc2c(c1)OCO2
-12%,COC(=O)c1sc(N2C(=O)C(O)=C(C(=O)c3ccc(C)o3)C2c2ccc(OC)c(OC)c2)nc1C (centres undefined)

(next part)
VDR inh,structure
12%,CCCOC(=O)CSc1nnc2ccc3ccccc3n12
-30%,CCOC(=O)C(C)Sc1cnccn1 (centres undefined)
-8%,CNc1cc([N+](=O)[O-])ccc1N/C=C/C(=O)c1cccs1
-19%,Cc1ccc2[nH]c3c(=S)nc[nH]c3c2c1
-9%,CC(C)c1ccc(NC(=S)NNC(=O)c2cccnc2)cc1
10%,CCCC(=O)Nc1cccc(OCc2cc(=O)n3cccc(C)c3n2)c1
0%,CCCCNC(=O)CCCCCNS(=O)(=O)c1ccc(OC)cc1
-20%,O=C(c1ccccc1O)N1N=C(C(F)(F)F)CC1(O)c1ccc([N+](=O)[O-])cc1 (centres undefined)

Additional structures
VDR inh,structure
-23%,CCC1(CC)NC(=O)N(CC(=O)Nc2ccc(-n3cnnn3)cc2)C1=O
-6%,CC(=O)c1ccc(NC2OC(CO)C(O)C(O)C2O)cc1 (centres undefined)
18%,COc1cccc(CNc2nn[nH]n2)c1OC
-6%,O=C(CCn1c(=S)[nH]c2ccccc2c1=O)NCCCN1CCCC1=O
7%,COc1ccc(C(c2c(C)n(C)n(-c3ccccc3)c2=O)c2c(C)n(C)n(-c3ccccc3)c2=O)c(OC)c1OC
1%,COc1cc(NC(=O)CCc2ccccc2)nc(OC)n1
8%,Cc1nc(N2CCCC2)c2c(C(=O)N3CCN(c4cccc(Cl)c4)CC3)c(C)oc2n1
5%,Cc1cc(C)c(OCCOCCN(C)C)c(Br)c1

New compounds follow.
VDR inh,structure
-10%,CCCc1nnc(NC(=O)CCC(=O)NCc2ccc(Cl)cc2Cl)s1
-4%,C=Cc1ccc(Cn2c(C(=O)O)c(CNC3CCCC3)c3ccc(C)cc32)cc1
-8%,CC1CN(C(=O)CCC(=O)NCc2cccs2)c2ccccc2O1 (centres undefined)
5%,O=C(CCNC(=O)c1ccco1)Nc1ccccc1N1CCOCC1
5%,CNCc1cc(Br)c(OCC(=O)Nc2ccccc2OC)c(OC)c1
9%,CCC(=O)Nc1ccc(C(=O)Nc2c[nH]c(=O)[nH]c2=O)cc1
-20%,CCOC(=O)[C@@H](C)NS(=O)(=O)N(Cc1ccccc1)[C@H](C(=O)OC)C(C)C
-14%,Cc1ccc(N2CCN(c3ccc([N+](=O)[O-])cn3)CC2)c(C)c1

3 entries from above in a different format.
CCCOC(=O)CSc1nnc2ccc3ccccc3n12
  VDR inh: 12%

Cc1nc2nc(SCC(=O)NCCCN3CCCCC3)nn2c(C)c1Cc1ccccc1
  VDR inh: 12%

CCOC(=O)C(C)Sc1cnccn1 (centres undefined)
  VDR inh: -30%

Following part
VDR inh,structure
-10%&-5%,CCCCCC(=O)N1CCN(CCN=CC2=C(O)CC(c3cccs3)CC2=O)CC1 (centres undefined)
10%,O=C(O)c1cc(Cl)nc2ccccc12
?,C=C1c2ccccc2O[C@H](C(=O)OCC)[C@@H]1CCC(C)C (tested in a mixture with another compound)
?,CC(=O)Nc1ccc(N2Cc3ccccc3C2)cc1
-5%,COc1ccc(CC(=O)OCC(=O)Nc2cccc(C(C)=O)c2)cc1OC
25%,Cc1ccc(C2CC(=O)NC(SCc3ccccc3)=C2C#N)o1 (centres undefined)
-3%,COc1ccc(S(=O)(=O)N2CCC(C(=O)N3CCC(C(N)=O)CC3)CC2)cc1Cl
-2%,CN1CCN(c2nc3c(c(=O)[nH]c(=O)n3C)n2Cc2cccc3ccccc23)CC1

Going on with the list.
VDR inh,structure
10%,CCCOc1ccc(Cn2c(C)nc([N+](=O)[O-])c2SCC(O)COC)cc1[N+](=O)[O-] (centres undefined)
-6%,CCN(CC)S(=O)(=O)c1ccc(NC(=O)c2c(-c3ccccc3)noc2C)cc1
3%,COc1ccc(CCNC(=O)C2CC=CCC2C(=O)O)cc1 (centres undefined)
-1%,COc1ccc(NC(=O)CSc2nc3c(oc4ccccc43)c(=O)n2Cc2ccco2)cc1Cl
15%,CCOc1ccc(-c2c(C(=O)N/N=C/c3sccc3C)nnn2-c2nonc2N)cc1
23%,O=C(COC(=O)c1ccc(F)cc1)Nc1ccc(Cl)cn1
-16%,COc1ccc(N2CCN(S(=O)(=O)c3c[nH]c(=O)[nH]c3=O)CC2)cc1
24%,Cc1nc(SCC(=O)NC2CCCC2)c2c(C)c(C)sc2n1

3 entries from above, arranged by heavy-atom count, largest number first:
VDR inh,structure
-10%&-5%,CCCCCC(=O)N1CCN(CCN=CC2=C(O)CC(c3cccs3)CC2=O)CC1 (centres undefined)
-12%,CCOc1ccccc1NC(=O)NNS(=O)(=O)c1cc(OC)ccc1OC
-16%,COc1ccc(N2CCN(S(=O)(=O)c3c[nH]c(=O)[nH]c3=O)CC2)cc1

(next part)
VDR inh,structure
-5%,COc1ccc2nc(CCN(C)C(=O)C3CCC(=O)N(Cc4cccc(F)c4)C3)[nH]c2c1 (centres undefined)
16%,Cc1ccc(SCC(=O)OCC(=O)NC(C)c2ccc(Br)cc2)cc1 (centres undefined)
22%,COC(C(=O)NNC(=O)CCc1ccccc1)c1ccccc1 (centres undefined)
?,COc1ccc(C)cc1NC(=O)Nc1ccccc1SC
-1%,CN(C(=O)c1cccc(NC(=O)Cc2ccc(NC(=O)C3CCCN(C(=O)C4CCCC4)C3)cc2)c1)C1CCCCC1 (centres undefined)
-24%,Cc1ccccc1NC(=O)/C(C#N)=C/c1ccsc1
11%,Nc1c(C(=O)NCCc2ccccc2)nnn1Cc1ccc(Cl)cc1
6%,CCCCn1c(N)c(N(CCC(C)C)C(=O)COC(=O)c2cccnc2Cl)c(=O)[nH]c1=O

Next section:
VDR inh,structure
3%,O=C(NCCCN1CCN(CCCNC(=O)c2ccccc2F)CC1)c1ccccc1F
-1%,Nc1cc2c(cc1Br)-c1ccc(F)cc1C2O (centres undefined)
-3%,O=C(O)c1ccc2c(c1)OCO2
-28%,COc1ccc(NC2CCCN(C(=O)CCN3CCCC3=O)C2)cc1OC (centres undefined)
8%,Cc1c(C)n(Cc2ccccc2)c2ccc(C(=O)NCc3ccco3)cc12
-13%,O=C(COc1ccccc1C(=O)NCC1CCCO1)Nc1ccc(Br)cc1 (centres undefined)
-9%,COc1ccc(CN2CCCC(CO)(Cc3cccc(Cl)c3)C2)cc1OC (centres undefined)
-20%,Cc1ccc2c(c1)COc1c3ccc(C(=O)NCC4CC4)cc3nn1-2

More results:
VDR inh,structure
?,CCNc1ccccc(C(=O)/C=C/c2ccc3c(c2)OCO3)c1=O
-13%,COC(=O)c1ccc(C2OCC(C)(C)CO2)cc1
4%,COc1ccc(NC(=O)C2CC(=O)NC3=C2C(=O)CC(C)(C)C3)cc1 (centres undefined)
8%,Cc1cc(Br)c(OCC(=O)NN)c2c1CCC2
-13%,COc1ccc(CCNC(=O)c2ccccc2N(C)S(=O)(=O)c2ccccc2)cc1
5%,Cn1c(SCC(=O)NC(=O)CN2CCCC2=O)nnc1-c1ccc(F)cc1
-2%,Nc1nc(COC(=O)CCC(=O)c2ccc(Cl)cc2)nc(Nc2ccccc2)n1
?,COc1ccc(C(=O)/C=C2\C(=O)Nc3ccc(Br)cc32)cc1

Additional structures:
VDR inh,structure
7%,Cc1ccc(OCC(=O)Nc2ccc(NC(=O)c3ccccc3)cc2)cc1C
-24%,CCOC(=O)[C@H]1[C@H]2COc3ccc(Br)cc3[C@@H]2N2C(=O)CN(Cc3ccccc3)C(=O)[C@@]12C
-14%,C[C@H](CO)N1C[C@H](C)[C@@H](CN(C)C(=O)Nc2ccccc2)Oc2c(NC(=O)Nc3ccccc3)cccc2C1=O
1%,O=C(C=C(O)c1ccc(Cl)cc1)C(=O)NNC(=O)C(O)(c1ccccc1)c1ccccc1
5%,CC(NC(=O)c1ccc(C(=O)c2ccccc2)cc1)c1ccc(S(N)(=O)=O)cc1 (centres undefined)
-15%,Cc1nc(N2CCC(C)CC2)c2c(C)c(C(=O)Nc3ccccc3C(F)(F)F)sc2n1
-8%,CCc1sc(N)nc1-c1ccccc1
-8%,Cc1ccc2oc(=O)c3cc(C(=O)NCCN4CCc5ccccc5C4)sc3c2c1

(next part)
VDR inh,structure
2%,COc1cc(OC)c(C=O)c(OC(=O)N2CCOCC2)c1
18%,O=C(Nc1nccs1)c1cccc(S(=O)(=O)N2CCOCC2)c1
-6%&0%,CCC[C@@H]1CCCO[C@@](C(=O)NCCN2CCOCC2)(C(F)(F)F)C1
12%,COc1ccc(CNC(=O)COC(=O)[C@H](Cc2ccccc2)NC(=O)c2cccs2)cc1
-17%,CC1(C)CC(=O)C(N=Nc2ccc(Cl)cc2)=C(O)C1
-4%,CC(C)(C)c1ccc(OCC(=O)NNC(=O)CCc2ccccc2)cc1
3%,CCc1ccc(Sc2cc(C(=O)O)c3ccccc3n2)cc1
-3%,CCCCc1nnc(NC(=O)CN2C(=O)C3CCCCC3C2=O)s1 (centres undefined)

Next part.
VDR inh,structure
-18%,O=C(c1ccc([N+](=O)[O-])cc1)N1CCN=C1SCc1ccccc1
-17%,CC(=O)Nc1ccc(Nc2nnc(-c3ccc(C)c(S(=O)(=O)NCC4CCCO4)c3)c3ccccc23)cc1 (centres undefined)
?,COc1ccc(NC(=O)c2c(NC(=O)CCC(=O)O)sc(-c3ccccc3)c2C)cc1
-4%,Cc1nnc(SCC(=O)NC(=O)Nc2ccc3c(c2)OCCO3)s1
5%,COc1ccccc1NC(=O)CSCC(N)=O
-6%,CCOc1ccc(CNS(=O)(=O)c2cccs2)cc1OCC
